# Source: PubChem
# gsp agonist: activates gsp, the McCune-Albright syndrome mutation; gsp mutant cells, cAMP HTRF, 30 min; control for the full effect not named in the record; Potency, µM (highest dose often 76.9 µM), inactives show top-dose activation (cAMP increase), usual class: activators; actives 0.13% (n = 340,000); AID 624287; active = well fitted activation curve with a large enough effect; inconclusive = small, poorly fitted or top-dose-only effect, or another doubt; inactive = no such curve, though single readings can be large or run the other way; cell line not stated here;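 further: phosphodiesterase inhibitor Ro 20-1724 added with compounds to block cAMP breakdown; potency means the concentration at half of the fitted maximal effect; nearly all actives have a fitted effect of over 60% in size; about a fifth of the inactives were tested at one dose only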
#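 Cells in DMEM/10% FBS with G418 were pretreated with compounds in DMSO plus […] (300 uM stock) for 30 min at 37C. cAMP was measured by HTRF (cAMP-d2 plus anti-cAMP antibody-K) after 30 min at room temperature.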
# CtBP-E1A blk: CtBP/E1A binding inhibition; AlphaScreen GST-E1A/His-CtBP binding, 1536-well; hits give low values; control for the full effect not named in the record; activity change, % (concentration not given with the values); actives 0.49% (n = 340,000); AID 651724; in the data active means activity change below about -65%; inconclusive means about -30% to -65%; inactive means above about -30%; further: on the % scale 0 is the no-effect control and ±100 the full control effect
#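 Steps: dispense buffer (Tris pH 8.0, NaCl 300 mM, TCEP 1 mM, BSA, Tween 20); add 5X protein mix (GST-E1A, His-CtBP, 125 nM each); pin 23 nL compound; 2 h at 37 °C, dark; add 5X beads (50 ug/mL); 1 h; read.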
# Sfp inh: blocks B. subtilis Sfp PPTase activity. Q9F4F7. Biochemical Sfp PPTase activity, qHTS. Potency, µM, for the others: max response, negative = inhibition, hits mostly inhibitors. actives 3.5% (n = 310,000); active means well fitted inhibition curve with a large enough effect; inconclusive means small, poorly fitted or top-dose-only effect, or another doubt; inactive means no such curve, though single readings can be large or run the other way;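 further: the enzyme is Sfp with the accession as filed and its product quenches rhodamine fluorescence; potency means the concentration at half of the fitted maximal effect; 0% = enzyme reaction without inhibitor and -100% = no enzyme wells; top concentration of the series not given in the record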
#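 Compounds were incubated with enzyme (final 15 nM) for 15 min at room temperature before substrate addition started the reaction. Fluorescence at 525 nm excitation, 598 nm emission was recorded immediately and after 30 minutes.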
# ClpP mod: qHTS Assay for Activators of ClpP; actives 1.9% (n = 340,000); purified B. subtilis ClpP, FRET peptide cleavage, 20 min; ATP-dependent Clp protease proteolytic subunit (Bacillus subtilis (strain 168)), P80244; Potency, µM (series often up to 57.5 µM), for inactives: at the top dose activity change, negative = active; active = well fitted falling curve with a large enough effect; inconclusive = small, poorly fitted or top-dose-only effect; inactive = no such curve, though single readings can be large or run the other way; further: potency means the concentration at half of the fitted maximal effect; the source files actives as falling curves though it sought activators and does not explain the sign; nearly all actives have a fitted effect of over 65% in size; many hits overshoot -100%
# Target sequence (P80244 whole entry, looked up): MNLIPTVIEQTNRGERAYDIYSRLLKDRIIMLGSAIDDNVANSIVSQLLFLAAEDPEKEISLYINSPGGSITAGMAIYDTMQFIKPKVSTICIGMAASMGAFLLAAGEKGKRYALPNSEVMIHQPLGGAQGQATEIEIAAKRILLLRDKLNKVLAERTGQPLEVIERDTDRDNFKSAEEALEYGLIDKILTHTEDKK
#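 Buffer: 100 mM Tris/HCl pH8, 100 mM KCl, 0.05% low protease BSA, 2.5% glycerol, 0.01% Tween-20. ClpP 10 microg/mL final; 20 min RT; delta FRET normalized to ADEP and DMSO controls.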
# gsp antagonist: gsp mutant antagonism. gsp-mutant cells, cAMP HTRF, 30 min; control for the full effect not named in the record. Potency, µM (series often up to 76.9 µM), for the others: at the highest dose activity change, negative = inhibition, hits mostly inhibitors. actives 0.4% (n = 340,000). AID 624288; active = falling curve of any shape with a large fitted effect; inconclusive = falling curve, mostly with a smaller effect; inactive = flat or rising curve; cell line not stated here;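 further: intracellular cAMP measured with PDE inhibitor Ro 20-1724 present during compound exposure; potency means the concentration at half of the fitted maximal effect; on the % scale 0 is the no-effect control and ±100 the full control effect; nearly all actives have a fitted effect of over 65% in size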
#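 Measurement of cellular cAMP by homogeneous time-resolved fluorescence following a 30 min compound exposure at 37C. The PDE inhibitor […] was present throughout; the assay buffer was DPBS with 0.05% BSA and 0.005% Tween 20.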
# TRPV1 potentiator: potentiators of human vanilloid receptor 1 (TRPV1) | TRPV1-expressing cells, Fluo-8 calcium influx, capsaicin EC20 potentiation; host cell line not named in the record; control for the full effect not named in the record | potentiation, % at 8.33 µM | actives 0.02% (n = 320,000) | AID 540277; active means potentiation above 80%; inconclusive means 30% to 80%; inactive means below 30%; further: 0% is about no effect
#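 Cells expressing TRPV1 were dye-loaded with Fluo-8 and read kinetically: 10 s baseline, 3 min after compound (agonist portion), then 2 min after EC20 capsaicin (allosteric enhancer portion). Calcium-bound dye fluorescence at 480/520 nm.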
# Menin MLL FP FL: menin-MLL binding inhibition, fluorescein peptide; 290,000 tested, under 10 active; Fluorescence polarization, fluorescein-MLL peptide displacement from menin; AID 1766; FP activity change, % at 61.4 µM; inconclusive = falling polarisation curve, or a change in total fluorescence; inactive = total fluorescence flat and polarisation flat or rising; no compound was filed as active; the % refers to the polarisation; negative = inhibition;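 further: % of control where 0% means no effect; inhibitors lower the polarisation; unlabelled MLL peptide was the positive control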
# * = called active by the depositor; ? = inconclusive; . = no result given; & = joins results of further samples; [ ] = another dose, or the depositor's remark.
1. Clc1ccc(SCCOCCN2CCc3ccccc3C2)cc1
2. CCOc1cc(C)nc(N2CCCC(C(=O)NCc3ccccc3F)C2)n1 (stereo not given)
3. CCOC(=O)C(NC(C)=O)(Nc1cccc(F)c1)C(F)(F)F (stereo not given)
4. O=c1oc2c(-c3cccc(F)c3)cc(O)cc2s1
5. Cc1ccn2cc(-c3cc4ccccc4oc3=O)nc2c1
Compound,1,2,3,4,5
Sfp inh,4%,6%,13%,?,-1%
gsp antagonist,6%,8%,11%,-16%,-1%
Menin MLL FP FL,-0.1,0.2,2.7,2.1,7.8
gsp agonist,8%[15.4 µM],-28%,-26%,-30%,-7%[15.4 µM]
CtBP-E1A blk,30,5,24,-3,6
ClpP mod,.,-5.8%,-2.5%,-17%,-1.2%
TRPV1 potentiator,2,-9,6,2,-3

6. Cc1ccc(C)c(NC(=O)CC2Oc3ccccc3NC2=O)c1 (stereo not given)
7. COc1ccc(C(=O)Cn2c(=N)n(C)c3ccccc32)cc1
8. CC1=NN(c2ccccc2)C(=O)C1/C=C1/NC(=S)NC1=O (stereo not given)
9. CCOC(=O)C1CCN(Cc2ccc(C(=O)OC)cc2)CC1
10. COc1ccc(-c2c(C)n([O-])c(C)c(C)[n+]2=O)cc1OC
Compound,6,7,8,9,10
Sfp inh,-1%,4%,-20%,-11%,14%
gsp antagonist,-7%,15%,?,7%,-3%
Menin MLL FP FL,0.1,1.0,12,1.2,4.2
gsp agonist,?,-1%[15.4 µM],-48%[inhibitor],10%,-47%[inhibitor]
CtBP-E1A blk,7,3,-5,0,3
ClpP mod,0.7%,1.3%,1.6%,-0.2%,-0.5%
TRPV1 potentiator,4,.,3,4,-14

11. CCN(CC)C1CCN(Cc2cn[nH]c2-c2ccc(OC)c(F)c2)C1 (stereo not given)
12. N#Cc1ccc(-c2ccc3c(c2)OCO3)nc1SCC(=O)OCc1ccccc1
13. O=P(C(=S)Nc1ccccc1Cl)(c1ccccc1)c1ccccc1
14. COc1cccc(N2CC(C(=O)Nc3nnc(SCC(=O)Nc4ccc(NC(C)=O)cc4)s3)CC2=O)c1 (stereo not given)
15. CC(=O)NCCN=C(C)c1sc2ccccc2c1O
Compound,11,12,13,14,15
Sfp inh,8%,5%,.,-14%,-14%
gsp antagonist,12%,3%,.,7%,-12%
Menin MLL FP FL,-4.4,17,.,.,0.2
gsp agonist,8%[15.4 µM],24%,-20%,0%[15.4 µM],3%
CtBP-E1A blk,-4,49,1,-6,-3
ClpP mod,.,2.5µM*,-2.0%,-8.4%,-22%
TRPV1 potentiator,-4,-1,.,19,3

16. CC1(C)Cc2c(sc(NC(=O)COc3ccc(Cl)cc3)c2C#N)C(C)(C)N1
17. O=C(CCc1nc2ccccc2s1)OCC(=O)c1ccccc1
18. Cc1ccccc1C(=O)NCC(=O)N1CCN(c2ccccn2)CC1
19. O=C(Nc1nnc(C(F)(F)F)s1)c1cccnc1
20. COc1cc(C(=O)NCC(c2ccccc2)N(C)C)ccc1OCc1c(C)noc1C (stereo not given)
Compound,16,17,18,19,20
Sfp inh,5%,-7%,.,-12%,.
gsp antagonist,-6%,2%,7%,?,15%
Menin MLL FP FL,-3.7,-0.3,.,-0.1,.
gsp agonist,5%[15.4 µM],-12%,19%[15.4 µM],-1%,5%
CtBP-E1A blk,-5,7,-4,9,2
ClpP mod,.,-1.7%,-2.9%,0.2%,-0.7%
TRPV1 potentiator,-7,-5,.,-4,10

21. O=C(CCCN1C(=O)c2ccccc2C1=O)NCCCn1ccnc1
22. COc1ccc(CN2CCN(Cc3ccco3)CC2)cc1OC
23. COc1ccccc1C(c1c(N)n(C)c(=O)n(C)c1=O)C(C)[N+](=O)[O-] (stereo not given)
24. O=C(NCCc1nc2ccccc2[nH]1)/C(=C/c1ccco1)NC(=O)c1ccc(Br)o1
25. O=C(CCC1CCCN(Cc2cccc3c2OCO3)C1)NCc1ccc(F)c(F)c1 (stereo not given)
Compound,21,22,23,24,25
Sfp inh,15%,?,5%,7%,-7%
gsp antagonist,10%,5%,2%,0%,3%
Menin MLL FP FL,-2.9,0.9,3.4,10,3.5
gsp agonist,-24%,-38%[inhibitor],-11%,4%,6%[15.4 µM]
CtBP-E1A blk,1,.,6,0,1
ClpP mod,-11%,0.3%,.,0.7%,.
TRPV1 potentiator,-2,3,21,4,-9

26. O=C(NCC(c1ccco1)N1CCc2ccccc2C1)C(=O)Nc1ccccc1 (stereo not given)
27. CCOC(=O)c1cccc(NC(=O)C2CCCN(c3nnc(N4CCCC4=O)s3)C2)c1 (stereo not given)
28. O=C(c1sc2cc(F)ccc2c1Cl)N1CCN(c2cccc(Cl)c2)CC1
29. COc1ccc(OC)c(S(=O)(=O)NCC(c2cccs2)N2CCc3ccccc3C2)c1 (stereo not given)
30. CCC1(C(N)=O)CC2C=CC1C2 (stereo not given)
Compound,26,27,28,29,30
Sfp inh,.,-3%,15%,.,.
gsp antagonist,-4%,-6%,6%,-3%,13%
Menin MLL FP FL,.,4.4,-0.3,.,.
gsp agonist,-37%[inhibitor],0%,-2%,-2%,-12%
CtBP-E1A blk,-22,-13,0,-1,2
ClpP mod,-4.0%,1.0%,1.4%,-7.6%,.
TRPV1 potentiator,-6,24,9,-5,.

31. C=C(C)COc1ccc(-c2n[nH]c(C)c2-c2ccc(OC)c(OC)c2)c(O)c1
32. Cc1cc(Br)ccc1NC(=O)CN(C)C(=O)c1cc([N+](=O)[O-])ccc1N1CCOCC1
33. COc1cc(C(CCN2CCCC(C)C2)c2c(OC)cc(OC)c3c2OC(=O)CC3c2ccc(N(C)C)cc2)cc(OC)c1OC (stereo not given)
34. Cc1[nH]c2ccccc2c1C(=O)C(=O)Nc1ccc2c(c1)OCO2
35. N#C/C(=C/c1ccc(CNS(=O)(=O)c2ccccc2)o1)C(=O)NCc1ccccc1
Compound,31,32,33,34,35
Sfp inh,24%,.,-9%&-14%,9%,-1%
gsp antagonist,13%,-9%,-4%,4%,3%
Menin MLL FP FL,8.3,.,1.4&1.5,.,12
gsp agonist,7%[15.4 µM],17%,.,0%,5%
CtBP-E1A blk,-9,-19,-20,.,10
ClpP mod,.,-3.1%,-2.7%,-1.6%,1.1%
TRPV1 potentiator,1,15,16,-9,14

36. c1ccc(CN2CCOCC2)nc1
37. CC(Oc1ccc(Cl)cc1Cl)C(=O)Nc1ccc2oc(-c3ccncc3)nc2c1 (stereo not given)
38. Cc1ccc(C(=O)OCC(=O)c2ccc(CC(=O)N3CCOCC3)s2)cc1C
39. Cc1ccc(C2C(C#N)=C(N)N(N(C)C)C3=C2C(=O)CCC3)cc1 (stereo not given)
40. COc1ccc(N2CC(C(=O)Nc3cccc(OC(C)C)c3)CC2=O)cc1 (stereo not given)
Compound,36,37,38,39,40
Sfp inh,.,?,.,5%,22%
gsp antagonist,6%,32µM*,?,5%,-8%
Menin MLL FP FL,.,2.8,.,3.4,3.7
gsp agonist,-1%,2%,0%,-18%,-5%[15.4 µM]
CtBP-E1A blk,7,-2,-1,-4,-12
ClpP mod,-1.9%,8.9µM*,2.9%,1.7%,.
TRPV1 potentiator,.,7,-5,2,-8

41. CC1CC(C)CN(S(=O)(=O)CCNC(=O)c2ccccc2)C1 (stereo not given)
42. COCCn1c(=NC(=O)c2ccc3c(c2)OCO3)c(C#N)cc2c(=O)n3cccc(C)c3nc21
43. COc1ccc(NS(=O)(=O)c2cccc(C(=O)NNC(=O)c3ccc(=O)[nH]c3)c2)cc1
44. N#C/C(=C1\CCCN1)c1nc2ccccc2c(=O)[nH]1
45. CN1CCN(c2cc(C(F)(F)F)nc3ccc(F)cc23)CC1
Compound,41,42,43,44,45
Sfp inh,.,-6%,.,12%,11%
gsp antagonist,-1%,.,10%,-5%,2%
Menin MLL FP FL,.,4.5,.,2.3,-1.3
gsp agonist,-36%[inhibitor],.,?,-28%,-2%[15.4 µM]
CtBP-E1A blk,-6,.,.,5,3
ClpP mod,0.4%,.,1.3%,0.0%,.
TRPV1 potentiator,16,-2,9,-4,17

46. COc1ccc(NC(=O)CCS(=O)(=O)c2cccc3nonc23)cc1Cl
47. Cc1ccccc1C(=O)N1CCC(C(=O)Nc2ccccn2)CC1
48. O=C(Nc1ccc2c(c1)CCC2)c1ccc(Br)s1
49. O=c1oc2ccc3ccccc3c2cc1-c1nnc(-c2ccccc2)o1
Compound,46,47,48,49
Sfp inh,12%,.,20%,8%
gsp antagonist,?,10%,-25%,5%
Menin MLL FP FL,0.4,.,-1.0,5.6
gsp agonist,-30%[inhibitor],-29%[15.4 µM],-4%[15.4 µM],16%
CtBP-E1A blk,-5,-13,0,2
ClpP mod,0.0%,-2.8%,0.7%,14µM*
TRPV1 potentiator,20,-3,?,-6
